GLA inh pH 4.5: inhibitors of human alpha-galactosidase A at pH 4.5 | P06280 | purified enzyme, 4-MU-alpha-Gal fluorescence, pH 4.5 | activity change, negative = inhibition, % at 105 µM | 230,000 tested, under 10 active | AID 1467; inconclusive = small, poorly fitted or top-dose-only inhibition, or a rising curve; inactive = flat fitted curve, though single readings scatter; no compound was filed as active;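 also: 0% = full activity with enzyme and -100% = basal without enzyme; dose as in the result columns while the protocol names 77 µM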
Rango dissoc inh: inhibition of RanGTP-driven Rango-importin beta dissociation. actives 0.071% (n = 340,000). AID 540253. Biochemical FRET Rango-importin beta, RanGTP-induced dissociation. Potency, µM (highest dose often 46.1 µM), inactives show top-dose activity change, negative = inhibition; active means falling FRET ratio curve, often poorly fitted, with flat reads before Ran was added; inconclusive means other falling curves, or compound fluorescence or quenching; inactive means flat or rising ratio curve;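 also: potency is read from the fitted curve at half-maximal effect; % of control where 0% means no effect; nearly all actives have a fitted effect of over 45% in size; -100% = wells without RanGTP and RCC1; the record marks most hits as doubtful in a second field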
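Compounds preincubate 5 min with complex of recombinant Rango and importin beta in PBS with 1 mM DTT. Ran (0.6 uM) loaded with 2 mM GTP plus 0.2 uM RCC1 starts dissociation; FRET is recorded 45 min later.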
Rango-impB inh: prevents formation of the Rango-importin beta complex | actives 0.031% (n = 340,000) | Potency, µM (series often up to 92.2 µM), without a hit: at the top dose inhibition of complex formation | Rango CFP/YFP FRET sensor + importin beta, 45 min; active = rising FRET ratio curve, often small or poorly fitted; inconclusive = mostly compound fluorescence or quenching in the first reads; inactive = flat curves in all reads;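 also: potency is read from the fitted curve at half-maximal effect; 0% = DMSO wells and 100% = buffer wells lacking importin beta; nearly all actives have a fitted effect of over 15% in size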
Target sequence (Q14974 whole entry, looked up): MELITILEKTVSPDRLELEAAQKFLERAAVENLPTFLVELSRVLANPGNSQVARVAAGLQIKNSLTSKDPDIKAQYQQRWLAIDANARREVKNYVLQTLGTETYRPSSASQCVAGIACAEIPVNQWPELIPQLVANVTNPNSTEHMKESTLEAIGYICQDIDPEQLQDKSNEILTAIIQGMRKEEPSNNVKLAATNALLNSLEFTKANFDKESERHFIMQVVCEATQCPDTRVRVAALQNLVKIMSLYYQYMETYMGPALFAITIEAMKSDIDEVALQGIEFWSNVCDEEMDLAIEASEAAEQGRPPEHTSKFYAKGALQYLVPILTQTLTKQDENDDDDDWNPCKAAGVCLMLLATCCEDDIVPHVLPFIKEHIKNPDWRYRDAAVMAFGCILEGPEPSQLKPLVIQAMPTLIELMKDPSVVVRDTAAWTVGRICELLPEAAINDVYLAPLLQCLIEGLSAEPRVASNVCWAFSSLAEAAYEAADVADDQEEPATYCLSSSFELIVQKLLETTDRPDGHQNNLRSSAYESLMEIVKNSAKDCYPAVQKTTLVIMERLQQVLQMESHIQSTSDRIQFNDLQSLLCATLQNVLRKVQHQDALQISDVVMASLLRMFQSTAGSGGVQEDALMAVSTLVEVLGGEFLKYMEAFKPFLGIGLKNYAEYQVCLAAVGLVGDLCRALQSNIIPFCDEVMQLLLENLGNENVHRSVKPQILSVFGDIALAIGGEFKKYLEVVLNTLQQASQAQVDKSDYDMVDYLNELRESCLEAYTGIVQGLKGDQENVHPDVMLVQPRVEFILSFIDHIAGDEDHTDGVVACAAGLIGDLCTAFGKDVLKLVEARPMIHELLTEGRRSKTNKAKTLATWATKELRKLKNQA
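FRET biosensor (snurportin 1 IBB flanked by EYFP and cerulean), 50 nM, with compound 5 min, then 0.125 microM importin beta in PBS, 1 mM DTT, 0.02% Tween-20, 0.1% BSA. CFP/YFP ratio read after 45 min at room temperature; pre-read flags interference.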
miR-21 reporter: raises the signal of a miR-21 reporter | Potency, µM (titrated, usually from 38.3 µM), inactives show at the highest dose reporter change, positive = more light | HeLa miR-21 FLuc reporter, luciferase, 48 h | 340,000 tested, under 10 active; active = well fitted rising curve with a large enough effect; inconclusive = small, poorly fitted or top-dose-only effect; inactive = no such curve, though single readings can be large or run the other way;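 also: % of control where 0% means no effect; miR-21 action dims this reporter so a rising signal means less miR-21 action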
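HeLa cells endogenously expressing miR-21, stably carrying CMV-driven firefly luciferase with a downstream miR-21 binding site, 2000 cells/well. Titrations up to approximately 40 uM, 48 hours; luciferase luminescence read.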
Active calls of the source: *. These rows are one share of the data. The share of hits here may be higher or lower than overall.

Results for Cc1ccc2nc(NC(=O)COC(=O)c3ccccn3)sc2c1 ?
GLA inh pH 4.5: -3.9; Rango dissoc inh: 12.3%; Rango-impB inh: 0.4%; miR-21 reporter: -46.4%

Results for CCOc1ccc(NC(=O)C2CCN(S(=O)(=O)c3ccc4c(c3)NC(=O)C(C)S4)CC2)cc1 (stereo not drawn) ?
Rango dissoc inh: -2.9%; Rango-impB inh: -2.2%; miR-21 reporter: 24.7%

Results for COc1ccccc1CN(C)C(=O)c1ccc2c(c1)NC(=O)CS2 ?
GLA inh pH 4.5: 1.4; Rango dissoc inh: 7.9%; Rango-impB inh: 0.3%; miR-21 reporter: -2.3%

How did COc1cccc(C(=O)N(c2ccc(OC)cc2OC)C2C=CS(=O)(=O)C2)c1 (stereo not drawn) do in these assays?
GLA inh pH 4.5: 8.4; Rango dissoc inh: 0.1%; Rango-impB inh: 0.4%; miR-21 reporter: 1.5%

Results for CO/N=C(/CN1CCCCC1)c1ccc(Cl)cc1 ?
Rango dissoc inh: 8.3%; Rango-impB inh: -1.7%; miR-21 reporter: -1.6%

What do the screens show for `Cc1ccc(N2CC(NC(=O)C(=O)c3c(C)[nH]c4ccccc34)CC2=O)cc1` (stereo not drawn)?
Rango dissoc inh: -0.3%; Rango-impB inh: 0.3%

What do the screens show for `COC(=O)c1ccccc1NC(=O)c1ccccc1NS(C)(=O)=O`?
GLA inh pH 4.5: -7.4; Rango dissoc inh: -15.4%; Rango-impB inh: 3.3%; miR-21 reporter: -1.5%

What do the screens show for `Cc1ccc(NC(=O)c2cccc3cccnc23)cc1`?
Rango dissoc inh: 11.9%; Rango-impB inh: 0.3%; miR-21 reporter: -60.8%

What do the screens show for `NC(=S)N/N=C/c1ccc(OC(=O)c2cccnc2)cc1`?
Rango-impB inh: inconclusive; miR-21 reporter: -3.7%

What do the screens show for `CCCCN(C(=O)CCC(=O)Nc1cc(C)on1)C(C(=O)NC1CCCC1)c1ccccc1C` (stereo not drawn)?
Rango dissoc inh: -12.1%; Rango-impB inh: -3.0%; miR-21 reporter: 11.0%

What do the screens show for `CCOC(=O)CNS(=O)(=O)c1ccc(S(=O)(=O)NC2CC2)cc1`?
Rango dissoc inh: -15.7%; Rango-impB inh: -3.9%; miR-21 reporter: 0.5%

What do the screens show for `O=C(N/N=C(\c1ccccc1)c1ccccn1)c1cccc([N+](=O)[O-])c1`?
GLA inh pH 4.5: -10.1; Rango dissoc inh: 12.0%; Rango-impB inh: 0.2%; miR-21 reporter: 16.1%

Results for CCN1C(=O)[C@@H]2[C@H](C1=O)[C@@H]1CC(C(=O)OC)=C[C@@H](C(=O)OC)C3C1=C(C(=O)C3(CC)CC)[C@@H]2C (stereo partly drawn) ?
Rango dissoc inh: -4.2%; Rango-impB inh: -2.3%

What do the screens show for `CCC(=O)c1ccc(OCC(O)CN2CCN(c3ccccn3)CC2)cc1` (stereo not drawn)?
Rango dissoc inh: 7.1%; Rango-impB inh: -0.1%; miR-21 reporter: 1.5%

What do the screens show for `COc1cc2c(cc1NC(=S)Nc1cccc3ccccc13)oc1ccccc12`?
GLA inh pH 4.5: 1.8; Rango dissoc inh: -0.7%; Rango-impB inh: 1.6%; miR-21 reporter: -15.2%

What do the screens show for `O=C(/C=C/c1ccccc1)N1CCN(c2c(Cl)cccc2[N+](=O)[O-])CC1`?
GLA inh pH 4.5: -17.9; Rango dissoc inh: 0.7%; Rango-impB inh: -0.7%; miR-21 reporter: -8.8%

What do the screens show for `O=C(O)c1cccc2c1Cc1cc([N+](=O)[O-])ccc1-2`?
Rango dissoc inh: 9.5%; Rango-impB inh: 5.8%

How did CCc1c(O)nc(SCC(=O)Nc2ccccc2)n(C(C)CC)c1=O (stereo not drawn) do in these assays?
GLA inh pH 4.5: 1.7; Rango dissoc inh: 10.8%; Rango-impB inh: 1.1%; miR-21 reporter: -4.7%

What do the screens show for `O=C(CN1C(=O)C2C3C=CC(C3)C2C1=O)Nc1ccc(F)cc1` (stereo not drawn)?
GLA inh pH 4.5: -6.5; Rango dissoc inh: 6.0%; Rango-impB inh: -5.0%; miR-21 reporter: -0.8%

What do the screens show for `CCOc1ccc2oc(C(=O)NCC3CCCO3)c(C)c2c1` (stereo not drawn)?
Rango dissoc inh: 4.0%; Rango-impB inh: -3.3%; miR-21 reporter: -49.4%

Results for O=c1c2ccccc2cnn1Cc1n[nH]c(=S)n1-c1cc(Cl)cc(Cl)c1 ?
GLA inh pH 4.5: 1.7; Rango dissoc inh: inconclusive; Rango-impB inh: 2.3%; miR-21 reporter: -0.2%

What do the screens show for `CCC1(c2ccc(F)cc2)NC(=O)N(CC(=O)Nc2ccc(N3CCCCC3)cc2)C1=O` (stereo not drawn)?
Rango dissoc inh: -15.0%; Rango-impB inh: 0.7%

How did Cc1ccc(N2CC(C(=O)N3CCc4ccccc4C3)CC2=O)cc1 (stereo not drawn) do in these assays?
GLA inh pH 4.5: -1.1; Rango dissoc inh: -17.6%; Rango-impB inh: -2.9%; miR-21 reporter: -2.1%

What do the screens show for `O=C1NC[C@@H](Cc2ccc(O)cc2)N(CCc2cccc(F)c2)C1=O`?
GLA inh pH 4.5: 13.2; Rango dissoc inh: 6.0%; Rango-impB inh: 0.6%; miR-21 reporter: -2.1%

Results for Cc1csc(=O)n1CC(=O)OCC(=O)c1c(N)n(C)c(=O)n(C)c1=O ?
Rango dissoc inh: -11.1%; Rango-impB inh: 0.5%

How did CCOC(=O)c1c(-c2ccc(F)cc2)csc1/N=C/N(C)C do in these assays?
GLA inh pH 4.5: -8.8; Rango dissoc inh: 3.3%; Rango-impB inh: 4.7%; miR-21 reporter: -20.2%

What do the screens show for `CCOC(=O)C1CCN(C(c2cccs2)c2sc3nc(C)nn3c2O)CC1` (stereo not drawn)?
GLA inh pH 4.5: 1.8; Rango dissoc inh: -10.1%; Rango-impB inh: -1.1%; miR-21 reporter: -1.8%

What do the screens show for `C=CCc1cc(OC)ccc1OCCCCn1cncn1`?
Rango dissoc inh: 0.1%; Rango-impB inh: -4.3%; miR-21 reporter: -1.5%

Results for Cc1c(C#N)c2ncn(CCCN(C)C)c(=O)c2n1-c1ccccc1 ?
GLA inh pH 4.5: 2.2; Rango dissoc inh: -8.1%; Rango-impB inh: 0.5%; miR-21 reporter: -2.4%

Results for CC12CCC(C(=O)NNC(=O)c3ccc(Br)cc3)(OC1=O)C2(C)C (stereo not drawn) ?
Rango dissoc inh: -8.2%; Rango-impB inh: inconclusive; miR-21 reporter: -9.6%

What do the screens show for `CCOC(=O)c1[nH]c(C)c(/C(O)=C2\C(=O)C(=O)N(CCN3CCOCC3)C2c2cccs2)c1C` (stereo not drawn)?
GLA inh pH 4.5: -13.6; Rango dissoc inh: 0.1%; Rango-impB inh: 0.0%; miR-21 reporter: 12.3%

What do the screens show for `CC1CCN(C(=O)CNC(=O)CNC(=O)Cc2ccccc2)CC1`?
Rango dissoc inh: 9.4%; Rango-impB inh: -2.1%; miR-21 reporter: 2.5%

How did CC[C@]12c3[nH]c4cc(-c5ccco5)ccc4c3CCN1C(=O)[C@@H](CC(=O)NCc1cccc(C(F)(F)F)c1)C[C@@H]2C(=O)N1CCN(C(=O)C2CC2)CC1 do in these assays?
Rango dissoc inh: 3.8%; Rango-impB inh: inconclusive

Results for Cc1nnc(SCc2cccs2)[nH]c1=O ?
GLA inh pH 4.5: -0.8; Rango dissoc inh: 16.8%; Rango-impB inh: 1.5%; miR-21 reporter: 1.4%

Results for CN(CC(=O)Nc1ccc(F)c(F)c1F)C(=O)C1CC(=O)N(C2CCCC2)C1 (stereo not drawn) ?
Rango dissoc inh: 11.6%; Rango-impB inh: -0.4%

How did COc1ccc(CCn2c(NN=C(C)C)nc3c2c(=O)[nH]c(=O)n3C)cc1 do in these assays?
GLA inh pH 4.5: 3.5; Rango dissoc inh: -4.6%; Rango-impB inh: 0.0%; miR-21 reporter: 21.3%

How did CCN1C(=O)c2cccc3c(S(=O)(=O)Nc4ncccc4C)ccc1c23 do in these assays?
GLA inh pH 4.5: -4.9; Rango dissoc inh: inconclusive; Rango-impB inh: inconclusive; miR-21 reporter: -11.9%

How did CC1(C)N=C(c2ccccc2)C(c2ccccc2)=N1 do in these assays?
Rango dissoc inh: -8.4%; Rango-impB inh: 2.2%

How did Cc1cccc(OCc2nc(-c3ccc(-n4cccc4)cc3)no2)c1 do in these assays?
GLA inh pH 4.5: 1.2; Rango dissoc inh: -1.2%; Rango-impB inh: 0.1%; miR-21 reporter: -0.7%

What do the screens show for `COc1ccc(NC(=S)Nc2ccccc2OC)c(OC)c1`?
GLA inh pH 4.5: 5.9; Rango dissoc inh: 1.9%; Rango-impB inh: -5.3%; miR-21 reporter: -6.4%

What do the screens show for `O=[N+]([O-])c1cc2c(cc1/C=N/Nc1nc(N3CCCC3)nc(N3CCCC3)n1)OCO2`?
GLA inh pH 4.5: -3.7; Rango dissoc inh: 2.3%; Rango-impB inh: -1.1%; miR-21 reporter: -7.8%

What do the screens show for `CCN(CC)S(=O)(=O)c1ccc(N2CCOCC2)c(NC(=O)c2cnccn2)c1`?
GLA inh pH 4.5: -2.0; Rango dissoc inh: 12.7%; Rango-impB inh: 1.3%; miR-21 reporter: 0.7%

Results for Cc1coc2cc3oc(=O)c(Cc4ccccc4)c(C)c3cc12 ?
GLA inh pH 4.5: 0.5; Rango dissoc inh: -12.5%; Rango-impB inh: inconclusive; miR-21 reporter: -3.7%

Results for ClCC1CN(Cc2ccccc2Cl)CCO1 (stereo not drawn) ?
GLA inh pH 4.5: -3.9; Rango dissoc inh: 7.5%; Rango-impB inh: -2.3%; miR-21 reporter: -0.3%

What do the screens show for `COc1ccc(-c2cc(-c3ccco3)[nH]c(=O)c2C#N)cc1OC`?
GLA inh pH 4.5: inconclusive; Rango dissoc inh: inconclusive; Rango-impB inh: inconclusive; miR-21 reporter: 0.8%

In the list so far, these contain a cyano group:
Results for Cc1c(C#N)c2ncn(CCCN(C)C)c(=O)c2n1-c1ccccc1 ?
GLA inh pH 4.5: 2.2; Rango dissoc inh: -8.1%; Rango-impB inh: 0.5%; miR-21 reporter: -2.4%

What do the screens show for `COc1ccc(-c2cc(-c3ccco3)[nH]c(=O)c2C#N)cc1OC`?
GLA inh pH 4.5: inconclusive; Rango dissoc inh: inconclusive; Rango-impB inh: inconclusive; miR-21 reporter: 0.8%

More compounds follow:
How did CCc1cccc(CC)c1N(COC)C(=O)Cn1c(C(C)O)nc2ccccc21 (stereo not drawn) do in these assays?
GLA inh pH 4.5: -0.9; Rango dissoc inh: 13.8%; Rango-impB inh: 0.1%; miR-21 reporter: -4.1%

How did NC(=O)c1cc([N+](=O)[O-])ccc1Nc1ccccc1 do in these assays?
Rango dissoc inh: 3.7%; Rango-impB inh: inconclusive

What do the screens show for `Cn1c(SCC(=O)NCc2ccco2)nnc1-c1ccccc1`?
GLA inh pH 4.5: -3.2; Rango dissoc inh: -18.5%; Rango-impB inh: 4.1%; miR-21 reporter: -4.1%

Results for COc1ccc(C(=O)Nc2ccc(Cl)c(Cl)c2)c(OC)n1 ?
GLA inh pH 4.5: 3.9; Rango dissoc inh: 1.3%; Rango-impB inh: -2.4%; miR-21 reporter: -63.9%

What do the screens show for `CCOC(CC(=O)NNC(=O)c1c(-c2ccccc2Cl)noc1C)OCC`?
GLA inh pH 4.5: 7.9; Rango dissoc inh: 13.3%; Rango-impB inh: -2.5%; miR-21 reporter: -5.9%

Results for N#CCCCc1cc2cc(F)ccc2cn1 ?
Rango dissoc inh: 0.1%; Rango-impB inh: -1.2%

How did CSCCC(NC(=O)COc1ccccc1)C(=O)N1CCOCC1 (stereo not drawn) do in these assays?
Rango dissoc inh: -14.0%; Rango-impB inh: -0.9%

Results for Cc1[nH]c(=O)c(C(=O)/C=C/c2ccccc2)c2c1CCCC2 ?
GLA inh pH 4.5: -0.5; Rango dissoc inh: inconclusive; Rango-impB inh: inconclusive; miR-21 reporter: inconclusive

How did CS(=O)(=O)N(CC(=O)N1CCC(C(N)=O)CC1)c1ccc(Cl)c(C(F)(F)F)c1 do in these assays?
GLA inh pH 4.5: 6.9; Rango dissoc inh: 3.6%; Rango-impB inh: 1.4%; miR-21 reporter: -1.3%

Bioassay records (PubChem BioAssay)
